Yeast UUG start – modulators of yeast start codon fidelity, primary screen, whole organism, S. cerevisiae, single point, plate reader | AID 602363, 2012 | 350,000 tested, 0.13% active | activity score, % at 18.7 µM | S. cerevisiae UUG-firefly luciferase reporter, luminescence/redox ratio;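 active = replicate mean at a twofold rise or more, about +100% in these data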;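 note: firefly luciferase made from a UUG start codon reports start codon fidelity; reporter light over untreated wells divided by growth signal over untreated wells; some hits fall short of that in this replicate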
Rce1 inh – yeast Rce1p protease inhibitors, primary screen, biochemical, fluorescence, cell-free homogeneous; CAAX prenyl protease 2 (Saccharomyces cerevisiae (strain ATCC 204508 / S288c)), Q03530; yeast membranes, quenched prenylated peptide cleavage fluorescence; calls only; 290,000 tested, 0.27% active;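 active = fall in fluorescence gain of 50% or more versus controls, with final raw signal at or below 3038400; inconclusive = same 50% fall but final raw signal above 3038400; inactive = fall in fluorescence gain under 50%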;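 note: plate controls were neutral control wells for no effect and wells lacking membranes for full effect; tested at 10 µM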
Target sequence (Q03530 whole entry, looked up): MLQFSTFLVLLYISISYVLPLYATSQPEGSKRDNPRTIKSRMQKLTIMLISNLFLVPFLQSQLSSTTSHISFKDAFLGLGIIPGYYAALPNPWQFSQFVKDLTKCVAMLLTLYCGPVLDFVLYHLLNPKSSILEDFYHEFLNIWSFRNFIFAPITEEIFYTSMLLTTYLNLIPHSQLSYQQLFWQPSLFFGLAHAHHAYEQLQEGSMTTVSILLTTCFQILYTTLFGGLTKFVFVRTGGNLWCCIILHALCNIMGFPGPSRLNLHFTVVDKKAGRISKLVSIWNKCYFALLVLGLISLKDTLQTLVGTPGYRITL
HIV Env fusion – inhibitors of HIV-1 Env-driven cell-cell fusion, primary screen, HeLa-JRFL effector, CEM21 target cells, luciferase; inhibition, % at 12.3 µM; 360,000 tested, 1.1% active; AID 651610, 2012;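 active = mean replicate inhibition score of at least 50 and every replicate individually at or above 50; inconclusive = only one of the two criteria met; inactive = mean below 50 and not all replicates reaching 50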;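 note: 0% = plate neutral controls and 100% = maraviroc near 300 nM; one replicate is shown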
eIF4H FP inh – human eIF4H binding inhibitors, primary screen, translation initiation inhibitor project, biochemical, uHTS, fluorescence polarization; 290,000 tested, 0.94% active; inhibition, % at 35 µM; eIF4H fluorescence polarization binding assay; Eukaryotic translation initiation factor 4H (Homo sapiens), Q15056;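 active = 50% or more with normal probe brightness, or confirmed in later tests; inconclusive = above 50% with abnormal brightness, or retests that disagree; inactive = below 50% or failed in later tests; about a fifth of its hits are not listed in these tables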;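 note: calls also rest on retests at 20 µM and on dose response follow-up; 0% = protein and probe with vehicle and 100% = probe without protein; strong numbers were not always called active; many hits fall short of the cut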
MT1-MMP act inh – blockers of MT1-MMP proenzyme processing, primary screen, HT1080 RFP-PRO-GFP cells, GFP/RFP fluorescence. Matrix metalloproteinase-14 (Homo sapiens), P50281. GFP/RFP ratio fluorescence, overnight; percent of plate control window, DMSO zero. GFP/RFP ratio change, % at 20 µM. 360,000 tested, 0.061% active. AID 651647, 2012;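 active = GFP/RFP ratio change of at least 30% with cell ATP level not reduced by more than half and red fluorescence within 50% of control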; note: strong numbers were not always called active
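Material – HT1080 RFP-PRO-GFP cells · Control set – DMSO wells and RFP-L50D-GFP cells · Incubation – overnight cell settling, then overnight compound exposure, 37 °C, 5% CO2 · Compound dosing – single-point 20 µM compound, 1% DMSO · Read-out – GFP/RFP fluorescence ratio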
PABP FP inh – PABP poly(A) RNA binding inhibitors, primary screen, biochemical, fluorescence polarization, uHTS. 290,000 tested, 1% active. AID 2014, 2009. inhibition, % at 35 µM. Polyadenylate-binding protein 1 (Homo sapiens), P11940;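 active = 50% or more with normal probe brightness, or confirmed in later tests; inconclusive = above 50% with abnormal brightness, or retests that disagree; inactive = below 50% or failed in later tests; about a fifth of its hits are not listed in these tables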;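 note: calls also rest on retests at 20 µM and on dose response follow-up; controls were probe without protein and protein plus probe with vehicle; some compounds called inactive have numbers as strong as hits; many hits fall short of the cut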
Target sequence (P11940 whole entry, looked up): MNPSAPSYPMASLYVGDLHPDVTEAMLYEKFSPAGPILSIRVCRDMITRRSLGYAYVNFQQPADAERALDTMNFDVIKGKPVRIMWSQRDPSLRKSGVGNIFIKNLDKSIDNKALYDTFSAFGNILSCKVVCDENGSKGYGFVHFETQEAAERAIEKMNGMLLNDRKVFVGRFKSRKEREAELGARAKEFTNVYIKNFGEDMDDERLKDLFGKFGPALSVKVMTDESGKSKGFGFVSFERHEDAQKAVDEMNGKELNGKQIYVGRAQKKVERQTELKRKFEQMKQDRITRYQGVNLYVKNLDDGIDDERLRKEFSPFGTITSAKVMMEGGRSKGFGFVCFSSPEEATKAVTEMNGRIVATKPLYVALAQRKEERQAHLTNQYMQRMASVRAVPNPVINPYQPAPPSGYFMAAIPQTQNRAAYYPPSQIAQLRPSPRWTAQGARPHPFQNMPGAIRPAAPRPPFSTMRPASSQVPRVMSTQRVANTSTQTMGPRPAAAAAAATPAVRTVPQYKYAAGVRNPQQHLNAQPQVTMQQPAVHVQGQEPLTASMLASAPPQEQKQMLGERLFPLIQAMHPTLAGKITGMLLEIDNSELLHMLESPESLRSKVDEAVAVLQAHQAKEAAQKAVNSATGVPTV
CSC inhib – cancer stem cell viability inhibitors, primary screen, luminescence. cancer stem cell-like cells viability. inhibition, % at 7.5 µM. AID 2717, 2010. 300,000 tested, 1.1% active;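 active = mean at 75% or more and at least half the replicates too; inconclusive = mean and replicates disagree; tested in HMLE shEcad cells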;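 note: 0% = median of negative and 100% = median of positive control wells; the first replicate is given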
eIF4H FP inh retest – second read-out of eIF4H FP inh, no call of its own (marks repeat the call); inhibition, %; compound at 20 µM; confirmation average;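 mean of two retest wells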
PABP FP inh retest – second read-out of PABP FP inh, no call of its own (marks repeat the call); inhibition, %; compound at 20 µM; confirmation repeats;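 mean of two retest wells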
MT1-MMP act inh RFP – second read-out of MT1-MMP act inh, no call of its own (marks repeat the call); RFP signal change, %; measured here: RFP expression control read;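 0 = vehicle wells; hits needed this value within 50% of zero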
* = called active by the depositor; i = inactive; ? = inconclusive; · = not tested or not shown; + = active, no number. An excerpt; count on the stated rates, not on these rows.

SMILES	Yeast UUG start	Rce1 inh	HIV Env fusion	eIF4H FP inh	MT1-MMP act inh	MT1-MMP act inh RFP	PABP FP inh	CSC inhib	others
O=C(COC(=O)/C=C/c1ccc2c(c1)OCO2)Nc1ccc(S(=O)(=O)N2CCCC2)cc1	·	i	-2	-2	4	7	-7	5
NC(=O)CSc1nnc2ccc(-c3ccc(Cl)cc3)nn12	·	i	-12	-4	2	4	-3	·
CC(=O)c1ccc(N=Cc2c(O)n(-c3cc(Cl)ccc3N3CCOCC3)c(=O)c3ccccc23)cc1	-29	i	·	-6	-7	-8	12	12
CCCCN(CCCC)c1nc(OC)nc(-n2nnc(C(C)=O)c2C)n1	13	i	·	-6	-4	-4	5	-9
Cc1cc([N+](=O)[O-])nn1CC(=O)N(C)C1CCCCC1	-5	i	-7	-1	0	5	24	·
CN(C)C(CNC(=O)c1coc2ccccc2c1=O)c1ccccc1 (centres undefined)	-19	i	-5	1	-12	1	12	10
CCCN(CC(=O)Nc1cccc(S(N)(=O)=O)c1)CC(=O)Nc1ccc(F)c(F)c1F	-6	i	-4	7	-1	1	-7	-5
CCN(CC)S(=O)(=O)c1ccc(/C=C/C(=O)OCC(=O)NC(=O)C2COc3ccccc3O2)cc1 (centres undefined)	·	·	0	·	1	5	·	-19
CC(OC(=O)c1ccccc1NCCO)C(=O)NC1CCCCC1C (centres undefined)	-2	i	3	·	-1	2	·	·
CN(C)c1nc(N(C)C)n(C(=O)c2ccc(F)cc2)n1	-15	i	8	-5	-5	-2	-9	0
COc1ccc(/C(O)=C2/C(=O)C(=O)N(Cc3cccnc3)C2c2ccncc2)cc1F (centres undefined)	-7	·	·	2	0	4	14	-15
O=C1CSc2ccc(S(=O)(=O)CCC(=O)NC3CCCCC3)cc2N1	-8	i	-15	14	-5	1	25	-2
Cc1ccc(S(=O)(=O)N(C)C)cc1NC(=O)c1cncc(Br)c1	-14	i	·	6	-33	-24	12	·
Cn1c(NCc2cccs2)nc2ccccc21	-11	i	·	2	2	6	6	·
COCCNC(=O)c1cc(Sc2nnc(C)s2)nc2ccccc12	·	i	·	-6	·	·	-13	-9
CC1CCC(NC(=O)C(NS(=O)(=O)c2ccc(Br)cc2)C(C)C)CC1 (centres undefined)	-3	·	-63	·	-2	0	·	·
CCc1cc2ccc(C)cc2nc1SCC(=O)Nc1c[nH]c(=O)[nH]c1=O	·	i	4	-3	0	0	-3	14
COc1cccc(Nc2nc3ccccc3n2C(C)C)c1	·	i	9	-9	-1	-4	4	·
O=C(c1ccccc1)N(Cc1ccccc1)Cc1ccccc1	-6	i	9	-3	-4	-5	2	-7
O=C(COc1cc2oc(=O)cc(-c3ccccc3)c2cc1Cl)NCc1ccccn1	-10	i	3	0	-1	0	0	2
CC1CCCN(c2ccc(/C=C(\C#N)c3nn(-c4ccccc4)c(N)c3C#N)cc2[N+](=O)[O-])C1 (centres undefined)	-4	i	-26	-6	4	-8	-1	-3
O=C1c2ccccc2NC(c2cccc([N+](=O)[O-])c2)N1CCc1ccccc1 (centres undefined)	-11	i	-5	-16	-1	-1	-8	-8
Cc1c(NC(=O)/C(C#N)=C\c2cccs2)c(=O)n(-c2ccccc2)n1C	·	i	·	2	-2	4	8	7
O=C(COC(=O)C1(c2ccc(Cl)cc2)CCCC1)N1CCc2ccccc21	·	i	-43	4	-4	-6	-3	36
Cc1ccc(-c2ccc(/C=N/n3cnnc3)o2)cc1	·	i	-12	2	2	-4	-5	-2
CN(Cc1nc2ccccc2[nH]1)C(=O)C1CCC(=O)N(C2CCCC2)C1 (centres undefined)	-9	i	-1	-7	-2	1	8	1
O=C(CSc1nc(NS(=O)(=O)c2ccccc2)cc(=O)[nH]1)Nc1ccc(F)cc1	-13	i	-109	-7	0	1	17	-6
Cc1ccc(C(=O)OCC(=O)c2c(N)n(C)c(=O)n(C)c2=O)cc1S(=O)(=O)N1CCCCC1	·	i	·	11	5	2	19	-7
O=C(Cn1cnc2cc([N+](=O)[O-])ccc2c1=O)NCc1ccc(Cl)cc1	·	i	3	11	4	1	2	-4
C#CCOCCOCCOCCNc1nc(N2CCN(C(=O)[C@H](CCC(=O)O)n3cc(C(N)Cc4ccc(O)cc4)nn3)CC2)nc(N2CCN(C(=O)[C@H](CCCCN)n3cc(C(N)[C@H](C)CC)nn3)CC2)n1 (some centres undefined)	·	i	·	17	·	·	29	·
O=C1CN(C(=O)COC(=O)CCC(=O)c2ccc(F)cc2)c2ccccc2N1	-10	·	·	·	-1	4	·	0
O=C(O)CSc1nnc(NC(=O)CN2CCOCC2)s1	-4	i	0	-8	5	7	3	0
COc1ccc(-c2noc(CN(C(=O)c3ccoc3C)C(C)C)n2)cc1	-9	i	22	-3	-1	-1	9	1
CCCNc1nc(C)cc(-c2cc(C(=O)NC3CCCC3)on2)n1	-7	i	-16	7	1	1	11	-1
CC(C)CC1(C)CNC(=O)NC1	5	·	37	·	1	5	·	·
CNC(=O)c1cc2c(ccc3ccccc32)oc1=N	·	i	·	15	·	·	6	-10
CCN(CC)c1ccc(/C=N/Nc2cccc(C)c2)c(O)c1	·	i	-9	66	4	6	-1	1	eIF4H FP inh retest=-6;PABP FP inh retest=-2
Cc1ccc(S(=O)(=O)NC2CCCC(C(=O)O)C2)cc1 (centres undefined)	-13	i	-22	-4	-5	5	-2	1
CCCCCC1=CCC/C1=N\NC(=O)c1ccc2c(c1)OCO2	·	i	-17	-6	7	1	3	5
COc1ccc(NC(=O)c2cc(-c3ccc(F)cc3OC(C)C)n[nH]2)c(OC)c1	-29	·	23	·	-4	-10	·	·
O=C(CSc1nncn1-c1cccnc1)Nc1ccccc1[N+](=O)[O-]	·	i	3	0	-1	1	-4	·
COc1ccc(N(C(=O)c2ccco2)C(C(=O)NC2CCCC2)c2ccc(C)cc2)c(OC)c1 (centres undefined)	-9	i	10	2	-9	-5	6	·
COc1ccccc1CNCC(O)(c1ccc(Cl)cc1)c1ccc(Cl)cc1	7	i	-142	-2	-10	-1	4	-14
CSc1ccccc1C(=O)C1CCCN(Cc2cnn(-c3ccccc3)c2)C1 (centres undefined)	·	i	-93	-2	6	3	-14	16
O=C(c1ccc(-c2ccccc2Cl)s1)N1CCOCC1	-13	i	-139	·	0	0	·	-18
Cc1ccc(CNC(=O)CN2C(=O)COc3ccc(C)cc32)cc1	-16	i	-51	-11	1	2	-2	-9
COc1cc2nc(CN3CCN(S(=O)(=O)c4ccccc4)CC3)[nH]c(=O)c2cc1OC	-17	·	3	·	-3	-6	·	·
O=C(CCC(=O)OCCCC(F)(F)C(F)(F)F)Nc1ccc(Cl)cc1Cl	-1	i	·	2	17	9	1	-3
Cc1cccc(-c2nc3ccccc3c(=O)[nH]2)c1	-18	i	-22	-6	1	-2	-3	-11
COc1ccccc1Nc1nc(-c2cccnc2)cs1	-3	i	-257	-2	1	0	-1	14
CC(C)CC(CO)N1CCN(C(=O)c2ccc(C(C)(C)C)cc2)CCC1=O (centres undefined)	2	·	3	-6	0	0	4	-28
CCC(C)(C)n1nnnc1C(c1ccccn1)N1CCOCC1 (centres undefined)	-18	i	-7	-4	6	2	-14	-11
CCC1=NN2C(=N)/C(=C\c3cccn3-c3ccc(Cl)cc3)C(=O)N=C2S1	·	·	6	10	-2	3	-8	16
CCN(CC)P(=O)(c1ccccc1)c1c(C)nc2ccccn12 (centres undefined)	·	i	-6	1	1	4	-5	-22
Brc1csc(/C=N/Nc2nc3ccccc3s2)c1	·	i	-425	-1	-12	-15	-7	2
COc1ccc(CNC(=O)CSc2cccc3cccnc23)cc1	-20	i	10	4	2	0	-6	·
COc1ccc(CCN(C)C(=O)c2ccc(S(=O)(=O)Nc3ccccc3C)cc2)cc1OC	·	+	-12	-5	·	·	-10	-10
Fc1ccccc1COc1ccc2ccccc2c1CNc1nn[nH]n1	-16	i	-8	13	0	2	30	39
O=C(OCc1csc(-c2ccccc2)n1)c1ccccc1O	·	i	-18	2	-1	3	-7	-8
O=C1/C(=C/c2cccc([N+](=O)[O-])c2)CSc2ccc(Cl)cc21	·	i	61*	-11	-7	-2	4	-9
Carrying on.
SMILES	Yeast UUG start	Rce1 inh	HIV Env fusion	eIF4H FP inh	MT1-MMP act inh	MT1-MMP act inh RFP	PABP FP inh	CSC inhib	others
Cc1cccc(NC(=O)CSc2nc3nc(C)cc(C)c3c(=O)[nH]2)c1	-14	i	·	-3	2	-1	-5	8
COc1ccc2c(c1)nc(SCC(=O)C(C)(C)C)n2C	-20	i	-73	-24	0	0	6	-1
COC(=O)COn1c(SCC(=O)OC)nc2ccccc2c1=O	5	i	·	-4	-15	0	-11	4
O=C(NC1CCCCC1)C1CCC(CNS(=O)(=O)c2cccc3nsnc23)CC1 (centres undefined)	-15	i	12	-9	0	0	0	1
Cn1nc(C(=O)OCC(=O)Nc2ccc(F)cc2Cl)c2ccccc2c1=O	-6	·	-12	·	-1	1	·	-12
CCNc1nc(NCC)n2c(SCC(=O)Nc3c(C)cccc3C)nnc2n1	·	i	-8	·	-1	1	·	4
COc1cc(CNCc2ccccn2)ccc1OCc1c(Cl)cccc1Cl	-10	·	·	-6	1	-8	-3	-1
Cc1nn(C)c(C)c1S(=O)(=O)Nc1ccc2c(c1)OCO2	-13	i	·	0	2	6	-8	-29
O=C(O)/C(=C\c1ccc(Br)cc1)c1ccc(S(=O)(=O)N2CCCCC2)s1	·	i	3	14	2	2	5	12
CSc1nc2nc3c(cc2c(=O)n1-c1ccccc1C)CCCC3	0	i	6	-1	-10	-22	9	17
O=C(CN1CCN(C2CCCCC2)CC1)Nc1cccc2ccccc12	-26	i	-1	18	-6	0	7	·
COc1ccc(-c2cc(C(=O)NC(Cc3c[nH]c4ccccc34)C(=O)O)c(C)o2)cc1OC (centres undefined)	·	i	-6	9	2	5	1	·
COC(=O)Cc1cc(=O)oc2c(C)c(O)ccc12	4	?	19	2	-4	3	-1	-5
Cn1c(C(=O)N2CCCC(C(=O)NCCCSC3CCCCC3)C2)cc2sccc21 (centres undefined)	-10	i	·	1	4	-16	3	?
CCn1c(NC(=O)c2cccc(Cn3cc(Cl)cn3)c2)nc2ccccc21	-16	i	16	-13	0	-23	2	22
Cc1cc2c(=O)n(CC(=O)N3CCN(c4ccc(F)cc4)CC3)cnc2s1	·	i	·	-10	-1	-4	-2	·
COc1ccc(S(=O)(=O)Cc2ccc(C(=O)N3CCN(c4ccccn4)CC3)o2)cc1	-16	i	·	-2	0	3	-1	-11
COc1ccc(C(=O)c2ccc(Br)cc2)c2ccccc12	-8	i	-21	·	2	5	·	71
